Rango release inh: qHTS Assay for Inhibitors of RanGTP induced Rango (Ran-regulated importin-beta cargo) - Importin beta complex dissociation; Biochemical FRET Rango-importin beta, RanGTP-induced dissociation; Potency, µM (top dose mostly 46.1 µM), without a hit: at the top dose activity change, negative = inhibition; 0.071% of 340,000 active; active means falling FRET ratio curve, often poorly fitted, with flat reads before Ran was added; inconclusive means other falling curves, or compound fluorescence or quenching; inactive means flat or rising ratio curve;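 further: potency means the concentration at half of the fitted maximal effect; % of control where 0% means no effect; nearly all actives have a fitted effect of over 45% in size; -100% = wells without RanGTP and RCC1; the record marks most hits as doubtful in a second field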
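Rango (0.1 uM)–importin beta (0.25 uM) complex; RanGTP-RCC1 trigger; 45 min RT; CFP/YFP FRET read.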
miR-21 FLuc: qHTS Assay for Modulators of miRNAs and/orActivators of miR-21 | HeLa miR-21 FLuc reporter, luciferase, 48 h | Potency, µM (top dose mostly 38.3 µM), without a hit: top-dose reporter change, positive = more light | 340,000 tested, under 10 active | AID 2288, 2010; active = well fitted rising curve with a large enough effect; inconclusive = small, poorly fitted or top-dose-only effect; inactive = no such curve, though single readings can be large or run the other way;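 further: % of control where 0% means no effect; miR-21 action dims this reporter so a rising signal means less miR-21 action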
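Luminescence from a firefly luciferase reporter carrying a miR-21 binding site downstream, stably expressed under a CMV promoter in HeLa cells that make miR-21 endogenously, reports miRNA modulation after 48 h compound exposure up to approximately 40uM final.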
GLA inh pH 4.5: qHTS Assay for Inhibitors of Human alpha-Galactosidase at pH 4.5; Alpha-galactosidase A (Homo sapiens), P06280; purified enzyme, 4-MU-alpha-Gal fluorescence, pH 4.5; 230,000 tested, under 10 active; AID 1467, 2008; activity change, negative = inhibition, % at 105 µM; inconclusive = small, poorly fitted or top-dose-only inhibition, or a rising curve; inactive = flat fitted curve, though single readings scatter; no compound was filed as active;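 further: 0% = full activity with enzyme and -100% = basal without enzyme; dose as in the result columns while the protocol names 77 µM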
Rango-impB inh: qHTS Assay for Inhibitors of Rango (Ran-regulated importin-beta cargo) - Importin beta complex formation; Rango CFP/YFP FRET sensor + importin beta, 45 min; Potency, µM (series often up to 92.2 µM), inactives show at the highest dose inhibition of complex formation; 0.031% of 340,000 active; AID 540263, 2011; active = rising FRET ratio curve, often small or poorly fitted; inconclusive = mostly compound fluorescence or quenching in the first reads; inactive = flat curves in all reads;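 further: potency means the concentration at half of the fitted maximal effect; 0% = DMSO wells and 100% = buffer wells lacking importin beta; nearly all actives have a fitted effect of over 15% in size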
Target sequence (Q14974 whole entry, looked up): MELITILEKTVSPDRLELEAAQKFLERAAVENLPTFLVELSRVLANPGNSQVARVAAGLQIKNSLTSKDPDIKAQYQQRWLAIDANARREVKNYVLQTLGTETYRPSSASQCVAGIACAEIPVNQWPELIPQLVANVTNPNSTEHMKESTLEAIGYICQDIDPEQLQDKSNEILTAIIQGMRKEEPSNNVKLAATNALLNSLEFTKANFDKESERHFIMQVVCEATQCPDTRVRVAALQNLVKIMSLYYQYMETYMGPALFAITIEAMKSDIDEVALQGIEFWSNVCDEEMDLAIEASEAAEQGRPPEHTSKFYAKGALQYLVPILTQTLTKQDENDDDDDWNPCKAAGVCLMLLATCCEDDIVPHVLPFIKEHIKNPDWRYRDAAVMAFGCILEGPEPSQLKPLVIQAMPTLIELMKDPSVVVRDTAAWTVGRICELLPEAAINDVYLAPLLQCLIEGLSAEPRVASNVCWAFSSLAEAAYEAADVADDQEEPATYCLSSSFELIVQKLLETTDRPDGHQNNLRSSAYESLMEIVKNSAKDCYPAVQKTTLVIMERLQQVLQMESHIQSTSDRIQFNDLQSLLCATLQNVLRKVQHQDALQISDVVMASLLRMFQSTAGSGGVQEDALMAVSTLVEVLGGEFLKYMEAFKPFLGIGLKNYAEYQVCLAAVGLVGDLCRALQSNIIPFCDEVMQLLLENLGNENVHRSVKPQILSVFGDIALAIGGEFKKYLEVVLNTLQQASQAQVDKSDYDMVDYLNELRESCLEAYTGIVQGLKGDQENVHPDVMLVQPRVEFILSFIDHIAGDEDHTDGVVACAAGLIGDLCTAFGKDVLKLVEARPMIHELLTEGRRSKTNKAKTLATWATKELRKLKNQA
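FRET biosensor Rango (snurportin 1 IBB between N-terminal EYFP and C-terminal Cerulean), 50 nM in PBS/1 mM DTT/0.02% Tween-20/0.1% BSA, preincubated 5 min RT with compound; 0.125 microM importin beta added, 45 min RT, CFP/YFP FRET ratio read.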
* marks the source's active call; other numbers are inactive results; u = inconclusive; x = not tested or not shown. Only part of the results is shown. The share of hits here may be higher or lower than overall.

Value order – Rango release inh	miR-21 FLuc	GLA inh pH 4.5	Rango-impB inh
1. COc1cc(C(=O)Nc2ccc3c(c2)nc(C)n3C)cc(OC)c1OC
    -4%	7%	x	-6.2%
2. CC(=O)N1CCc2cc(Br)cc(S(=O)(=O)N3CCc4ccccc43)c21
    -17%	3%	-19	0.9%
3. Cc1cc(S(=O)(=O)Nc2nc(CN3CCOCC3)nc3sc4c(c23)CCC4)ccc1F
    -2%	x	x	-0.3%
4. NS(=O)(=O)c1ccc(NC(=O)c2c(F)cccc2Cl)cc1
    9%	0%	3	0.2%
5. O=C(O)c1cccc(NC2=C(Cl)C(=O)c3ccccc3C2=O)c1
    18%	u	-8	0.1%
6. O=C(CSC1=NCCS1)N1CCc2ccccc21
    -6%	-53%	-3	-2.5%
7. Cc1cc2c3c([nH]c2cc1S(=O)(=O)NCCCOC(C)C)CC(C)(C)CC3=O
    -2%	10%	x	5.1%
8. CCOC(=O)CSc1nnc(-c2ccco2)n1-c1ccc(C)cc1
    -6%	-5%	0	5.7%
9. CC1Sc2ccc(S(=O)(=O)CCC(=O)NCc3ccc(Cl)cc3)cc2NC1=O (stereo not drawn)
    17%	15%	x	-0.6%
10. Nc1nnc(SCC(=O)NCc2ccc3c(c2)OCO3)s1
    -8%	-1%	-5	0.1%
11. CCS(=O)(=O)N1CCCC(C(=O)NCCN2CCC(Cc3ccccc3)CC2)C1 (stereo not drawn)
    7%	5%	6	-3.6%
12. O=C(Cc1ccc(Br)cc1)NCCc1ccccc1
    0%	x	x	6.8%
13. Cc1ccc(S(=O)(=O)N2CC=C(c3ccc(F)cc3)CC2)cc1
    17%	-6%	1	-3.3%
14. CCCCN(C(=O)c1cc(S(=O)(=O)N2CCCCC2)ccc1Cl)c1c(N)n(CC(C)C)c(=O)[nH]c1=O
    1%	x	x	-0.6%
15. CSc1nnc(-c2ccccc2Cl)n1N
    11%	-4%	-1	0.6%

An excerpt from above in order of count of non-hydrogen atoms, descending.
Value order – Rango release inh	miR-21 FLuc	GLA inh pH 4.5	Rango-impB inh
11. CCS(=O)(=O)N1CCCC(C(=O)NCCN2CCC(Cc3ccccc3)CC2)C1 (stereo not drawn)
    7%	5%	6	-3.6%
2. CC(=O)N1CCc2cc(Br)cc(S(=O)(=O)N3CCc4ccccc43)c21
    -17%	3%	-19	0.9%
4. NS(=O)(=O)c1ccc(NC(=O)c2c(F)cccc2Cl)cc1
    9%	0%	3	0.2%

Next section.
Value order – Rango release inh	miR-21 FLuc	GLA inh pH 4.5	Rango-impB inh
16. Cc1ccc(/C=C/C(=O)NCc2ccccn2)o1
    15%	-3%	6	-1.0%
17. COc1cc2[nH]c(=S)nc(NCC3CCCO3)c2cc1OC (stereo not drawn)
    2%	-3%	3	2.5%
18. CCOC(=O)c1sc(NC(=O)CSc2n[nH]c(-c3ccc(Cl)cc3Cl)n2)c(C#N)c1C
    -7%	-5%	3	-0.8%
19. O=C(CC1Nc2ccccc2NC1=O)NCc1cccnc1 (stereo not drawn)
    -19%	-6%	7	u
20. Cn1c(CNC(=O)c2ccco2)nnc1SCCOc1ccccc1
    -2%	0%	x	-2.3%
21. COC(=O)C1=C(CCc2ccccc2)NC(=O)NC1c1ccc(C#N)cc1 (stereo not drawn)
    32%	x	x	-1.7%
22. Cc1ccc(SCC(=O)NN2C(=O)c3ccccc3C2=O)cc1
    2%	-1%	3	-0.5%
23. CN(/C=C/C(=O)C(F)(F)C(F)(F)F)Cc1ccccc1
    14%	-4%	3	-2.5%
24. Cc1nn(C)cc1CN(C)Cc1ccc(OCC(O)CN2CCCCC2)cc1 (stereo not drawn)
    10%	0%	12	4.0%
25. Cc1ccc(Cn2cccc(-c3nc4ccccc4s3)c2=O)cc1
    u	-35%	u	u
26. Cc1noc(C)c1C(=O)Nc1ccccc1N1CCOCC1
    12%	x	x	5.0%
27. CCOC(=O)c1cc2occc2n1Cc1c(F)cccc1Cl
    -6%	-5%	4	-2.7%
28. O=C(CSc1ccc2c(c1)OCCO2)Nc1ccc(Br)cn1
    4%	6%	x	2.2%
29. CN(C)C(=O)c1c2c(nc3ccccc13)CCCC2
    17%	4%	2	-0.6%
30. O=C(O)CSc1nnc(COc2cccc3cccnc23)n1-c1ccc(Cl)cc1
    10%	-4%	6	3.5%
31. COc1ccc(NC(=O)N(C)C[C@H]2Oc3c(NS(=O)(=O)c4cccs4)cccc3C(=O)N([C@H](C)CO)C[C@@H]2C)cc1
    -5%	x	x	-0.6%
32. COc1ccccc1-n1c(SCC(=O)N2CCOCC2)nc(O)c(Cc2ccccc2)c1=O
    -8%	0%	-5	-2.6%
33. CCOc1cc(C(=O)OC(C(=O)NC(=O)NC)c2ccccc2)ccc1OCC(=O)N1CCOCC1 (stereo not drawn)
    12%	x	x	1.6%
34. CCN1C(=O)N(c2cccc3ccccc23)C(C)=CC1(C)C
    0%	3%	2	0.7%
35. COc1ccc(-c2[nH]ncc2CN(Cc2nccn2C)C(C)C)c(F)c1
    1%	-3%	2	3.7%
36. COc1ccc(C(=O)NCc2nnc(SC)n2Cc2ccccc2)cc1
    -5%	0%	1	4.9%
37. O=C(NCCCN1CCN(c2cccc(Cl)c2)CC1)C1CCC(=O)N1Cc1ccccc1Cl (stereo not drawn)
    1%	-2%	-2	0.5%
38. Nc1c([N+](=O)[O-])cc(-c2cnc[nH]2)cc1[N+](=O)[O-]
    27%	1%	-3	1.4%
39. CC1(C)C(=O)Nc2ccccc2N1C(=O)COC(=O)c1cccs1
    0%	x	x	-0.5%
40. COc1ccc(/C=C/C(=O)Nc2ccccc2)cc1S(=O)(=O)N1CCOCC1
    -8%	17%	-8	3.9%
41. N#CCSc1nnc(-c2ccc3c(c2)OCO3)o1
    -4%	-21%	15	-1.4%
42. O=C(CN1CCN(S(=O)(=O)c2ccccc2)CC1)NCc1ccccc1
    3%	-4%	x	0.0%
43. CCOc1ccc(Nc2nc(N)nc(CN(C)C3CCCCC3)n2)cc1
    1%	-14%	-6	58µM*
44. COc1ccc(/C=N/NC(=O)c2ccn[nH]2)cc1COc1ccc(Cl)cc1
    -1%	-28%	-2	-0.6%
45. Cc1onc(-c2ccccc2)c1C(=O)Nc1nc(-c2ccc(F)c(F)c2)cs1
    19%	-6%	-6	-0.2%

3 consecutive entries out of the list so far:
Value order – Rango release inh	miR-21 FLuc	GLA inh pH 4.5	Rango-impB inh
43. CCOc1ccc(Nc2nc(N)nc(CN(C)C3CCCCC3)n2)cc1
    1%	-14%	-6	58µM*
44. COc1ccc(/C=N/NC(=O)c2ccn[nH]2)cc1COc1ccc(Cl)cc1
    -1%	-28%	-2	-0.6%
45. Cc1onc(-c2ccccc2)c1C(=O)Nc1nc(-c2ccc(F)c(F)c2)cs1
    19%	-6%	-6	-0.2%

Other results follow.
Value order – Rango release inh	miR-21 FLuc	GLA inh pH 4.5	Rango-impB inh
46. CNC(=O)NC(=O)C(C)OC(=O)CCCSc1nc2ccccc2s1 (stereo not drawn)
    24%	22%	-9	-0.3%
47. CCOC(=O)C1CCN(C(=O)CCc2nnc3ccc(NCCCN4CCCC4=O)nn23)CC1
    27%	-1%	x	-1.0%
48. CCOC(=O)/C(C#N)=C/c1cn(CCC(=O)O)nc1-c1ccc(F)cc1
    -1%	0%	2	2.7%
49. Cc1ccc(NC(=S)N(Cc2ccc(Cl)cc2)Cc2ccc(C(=O)O)cc2)cc1Cl
    15%	-1%	u	0.4%
50. CCOC(=O)/C(C#N)=C/c1c(OCC)n(CC)c2ccccc12
    8%	-2%	-3	0.1%
51. COc1cc(/C=N/NC(=O)C[n+]2ccccc2)cc(OC)c1OC(C)=O
    -4%	-1%	-3	-8.8%
52. CSc1nc2ccccc2n1CC(=O)Nc1c(C)n(C)n(-c2ccccc2)c1=O
    0%	1%	-10	-3.8%
53. COc1ccc2nc(Nc3nc(CSc4nc5ccccc5[nH]4)cc(=O)[nH]3)nc(C)c2c1
    0%	-10%	-6	-0.4%
54. CCC(OC(=O)c1ccco1)C(=O)NC1CCCC1 (stereo not drawn)
    -1%	2%	x	1.6%
55. CCC1(CC)NC(=O)N(CC(=O)Nc2ccc(S(=O)(=O)N3CCOCC3)cc2)C1=O
    -3%	-2%	-4	2.6%
56. CCN1CCN(c2nc(S(=O)(=O)c3ccc(C)cc3)c(Cl)s2)CC1
    2%	-3%	5	0.3%
57. CC(C)CN(C(=O)c1ccc(C(F)(F)F)cc1)c1c(N)n(CC(C)C)c(=O)[nH]c1=O
    3%	-2%	x	5.4%
58. CCCCn1c(-c2cccc3ccccc23)nc2cc3[nH]c(=O)c(C(C)C)nc3cc21
    -9%	10%	x	u
59. CCOc1ncccc1C(=O)OCc1ccc(C(=O)OC)o1
    -13%	-3%	-1	3.2%
60. CC1(C)CC(N2CCCC2)=CC(=[N+]2CCCC2)C1
    19%	u	-23	0.2%
61. CC(C)C(C)NC(=O)CN1C(=O)NC2(CCCc3ccccc32)C1=O (stereo not drawn)
    16%	0%	-19	0.1%
62. CC(C)NC(=O)CC1C(=O)NCCN1CC(c1ccccc1)c1ccccc1 (stereo not drawn)
    -6%	2%	-8	-0.5%
63. Cc1ccc(-c2cc(-c3ccccc3)nc(N)c2C#N)o1
    -18%	0%	x	u
64. O=C(CCCN1C(=O)NC2(CCCC2)C1=O)Nc1cccc(S(=O)(=O)N2CCOCC2)c1
    -3%	x	x	-3.3%
65. CC(NCCCOc1cccc2ccccc12)c1ccccc1 (stereo not drawn)
    -1%	u	x	-2.8%
66. CC(C)(C)C1CCc2c(sc(NC(=O)C3CC=CCC3C(=O)O)c2C#N)C1 (stereo not drawn)
    -8%	13%	-26	7.3%
67. O=C(OCc1ccccc1)/C(=C/c1cccc([N+](=O)[O-])c1)NC(=O)c1ccco1
    -6%	7%	x	1.3%
68. CCC(C)N(C(=O)Cn1c(=O)cnc2ccccc21)C1CCS(=O)(=O)C1 (stereo not drawn)
    -16%	x	x	5.1%
69. Cc1cc2oc(=O)cc(CN(C)Cc3cccc(F)c3)c2cc1Cl
    -19%	-9%	x	1.1%
70. CCOC(=O)c1ccc(N/N=C/c2cc(Br)cc([N+](=O)[O-])c2O)cc1
    8%	-1%	-10	0.1%
71. Cc1ccc(-c2nnn(CCC(=O)NC(C)(C)C)n2)cc1
    12%	-57%	-1	-2.2%
72. Nn1c(SCC(=O)Nc2ccc(Oc3ccccc3)cc2)nnc1C1CC1
    1%	-22%	-1	2.5%
73. N#CCn1c2ccccc2c2nc3ccccc3nc21
    -1%	-12%	-7	u
74. NC(=O)c1cccc2c(=O)oc3ccccc3c12
    0%	-1%	-12	-1.4%
75. Cc1ccc(CNC(=O)Cn2ccc3ccccc3c2=O)o1
    -17%	-8%	5	0.0%
76. Cc1ccc(Cn2c(C(C)Nc3nc(-c4ccc(F)cc4)cs3)nc3cc(C(=O)NCCCO)ccc32)cc1 (stereo not drawn)
    -14%	x	x	-2.9%
77. O=C(NC1CCCC1)C1CCCN(S(=O)(=O)c2ccc(-n3cnnn3)cc2)C1 (stereo not drawn)
    10%	3%	0	0.2%
78. O=S(=O)(CCSc1ccc(C(F)(F)F)cn1)c1ccc(Cl)cc1
    -4%	-2%	-5	1.1%

Sorted by the number under GLA inh pH 4.5 (falling): 4 of the compounds above
no.	canonical_smiles	GLA inh pH 4.5
27	CCOC(=O)c1cc2occc2n1Cc1c(F)cccc1Cl	4
71	Cc1ccc(-c2nnn(CCC(=O)NC(C)(C)C)n2)cc1	-1
32	COc1ccccc1-n1c(SCC(=O)N2CCOCC2)nc(O)c(Cc2ccccc2)c1=O	-5
53	COc1ccc2nc(Nc3nc(CSc4nc5ccccc5[nH]4)cc(=O)[nH]3)nc(C)c2c1	-6
